Compound activity deposited in PubChem BioAssay by National Center for Advancing Translational Sciences (NCATS).
D2 PAM: positive allosteric modulators of human D2 dopamine receptor; DiscoveRx D2 beta-arrestin cells, luminescence, 90 min; 100% = 57 uM dopamine signal; potentiation, % (no concentration beside the values); hit rate 0.23% among 360,000; AID 624464; active = potentiation of 50% or more; inconclusive = 30% to 50%; inactive = 30% or less;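 further: compound concentration not given in the record; tested on top of an EC20 dose of dopamine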
Target sequence (P14416 whole entry, looked up): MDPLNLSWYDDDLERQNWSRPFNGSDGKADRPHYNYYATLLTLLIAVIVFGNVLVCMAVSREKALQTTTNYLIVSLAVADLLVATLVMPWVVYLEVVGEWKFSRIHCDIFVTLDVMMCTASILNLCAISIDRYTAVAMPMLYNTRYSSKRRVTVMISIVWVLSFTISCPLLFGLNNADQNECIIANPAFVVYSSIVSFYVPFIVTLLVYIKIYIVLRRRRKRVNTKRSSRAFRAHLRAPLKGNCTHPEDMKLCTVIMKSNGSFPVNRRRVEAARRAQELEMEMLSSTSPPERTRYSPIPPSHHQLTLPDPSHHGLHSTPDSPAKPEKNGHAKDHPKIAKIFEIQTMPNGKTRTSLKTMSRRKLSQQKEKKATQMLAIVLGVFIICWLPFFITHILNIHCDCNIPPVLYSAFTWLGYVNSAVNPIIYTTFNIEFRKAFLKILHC
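D2 cells co-treated with compound plus 50 nM dopamine (EC20) for 90 min at 37 deg C to detect potentiation. Beta-arrestin recruitment was read as enzyme-fragment luminescence after 1 h at ambient temperature. Full response was set by 57 uM dopamine.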
gsp antagonist: antagonizes gsp, the McCune-Albright syndrome mutation. hit rate 0.4% among 340,000. AID 624288. Potency, µM (doses to about 76.9 µM), inactives show at the highest dose activity change, negative = inhibition, hits mostly inhibitors. gsp-mutant cells, cAMP HTRF, 30 min; control for the full effect not named in the record; active = falling curve of any shape with a large fitted effect; inconclusive = falling curve, mostly with a smaller effect; inactive = flat or rising curve; cell line not stated here;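 further: intracellular cAMP measured with PDE inhibitor Ro 20-1724 present during compound exposure; potency means the concentration at half of the fitted maximal effect; on the % scale 0 is the no-effect control and ±100 the full control effect; nearly all actives have a fitted effect of over 65% in size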
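G418-selected cells were plated in DMEM/10% FBS for 16-24 h at 37C, then treated with compounds plus the PDE inhibitor […] (300 uM solution added) for 30 min at 37C. Intracellular cAMP was measured by HTRF after 30 min lysis at room temperature.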
D2 ag: activates the human D2 dopamine receptor. AID 624465. activation, % (test concentration not listed). P14416. hit rate 0.084% among 360,000. DiscoveRx PathHunter D2 beta-arrestin, luminescence, 90 min; 100% = 57 uM dopamine signal; in the data active = activation above about 40%; inconclusive = about 15% to 40%; inactive = below about 15%; further: compound concentration not given in the record; the text of the record calls up to 30% inactive
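DiscoveRx PathHunter D2 beta-arrestin cells (2,100/well) attached overnight, then compound-stimulated 90 min at 37 C in HBSS/10 mM HEPES/0.1% Tween-20 buffer; beta-galactosidase complementation read by luminescence after 1 h at ambient temperature. Dopamine 57 uM final (EC100) as control.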
CtBP-E1A blk: inhibitors of CtBP/E1A interaction. AID 651724. AlphaScreen GST-E1A/His-CtBP binding, 1536-well; active compounds read low; control for the full effect not named in the record. activity change, % (test concentration not listed). hit rate 0.49% among 340,000; in the data active means activity change below about -65%; inconclusive means about -30% to -65%; inactive means above about -30%; further: on the % scale 0 is the no-effect control and ±100 the full control effect
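In 5 uL wells, 23 nL compound meets equimolar GST-E1A and His-CtBP (5X stock 125 nM each) for 2 h, 37 °C. Beads (5X, 50 ug/mL) then 1 h, 37 °C, dark.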
gsp agonist: activates gsp, the McCune-Albright syndrome mutation | gsp mutant cells, cAMP HTRF, 30 min; control for the full effect not named in the record | Potency, µM (titrated, usually from 76.9 µM), for the others: top-dose activation (cAMP increase), usual class: activators | hit rate 0.13% among 340,000 | AID 624287; active = well fitted activation curve with a large enough effect; inconclusive = small, poorly fitted or top-dose-only effect, or another doubt; inactive = no such curve, though single readings can be large or run the other way; cell line not stated here;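 further: phosphodiesterase inhibitor Ro 20-1724 added with compounds to block cAMP breakdown; potency means the concentration at half of the fitted maximal effect; nearly all actives have a fitted effect of over 60% in size; about a fifth of the inactives were tested at one dose only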
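Cells stably selected in G418 were plated at 2000/well, grown 16-24 hr, then given compounds in DMSO with the PDE inhibitor […] (300 uM solution added) for 30 min at 37C; cAMP was read by HTRF.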
Six1-Eya2 blk: blocks human Six1 binding to Eya2 | hit rate 0.56% among 360,000 | Q15475+O00167 | activity change, % (test concentration not listed) | AlphaScreen GST-Six1/His-Eya2 binding, biochemical; active compounds read low; control for the full effect not named in the record; in the data active = activity change below about -65%; inconclusive = about -30% to -65%; inactive = above about -30%; further: on the % scale 0 is the no-effect control and ±100 the full control effect
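AlphaScreen luminescence read after one hour at 37 °C in darkness. Pin-transferred compounds met GST-Six1 and His-Eya2 protein (5X stock 250 nM/500 nM) plus glutathione donor and Ni-chelate acceptor beads (5X, 50 ug/mL).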
* = called active by the depositor; u = inconclusive; x = not tested or not shown; [ ] = dose if it differs, or a comment. A portion of the library; rates above refer to the full screens.

Short keys – A = D2 PAM; B = gsp antagonist; C = D2 ag; D = CtBP-E1A blk; E = gsp agonist; F = Six1-Eya2 blk
[1] COC12CCC3(CC1C(C)(O)C(C)(C)C)[C@H]1Cc4ccc(OC5OC(C(=O)O)[C@@H](O)C(O)[C@H]5O)c5c4[C@@]3(CCN1CC1CC1)C2O5 (some centres undefined)
  A: -12; B: 2%; C: 4.0; D: -8; E: x; F: 5

[2] c1ccc(-c2cc(-c3ccccc3)[n+](-c3ccccc3)c(-c3ccccc3)c2)cc1
  A: x; B: 50µM*; C: 14; D: -13; E: -5%[15.4 µM]; F: -6

[3] O=C1NCN(c2ccccc2)C12CCN(C(c1ccccc1OC(F)(F)F)c1nnnn1Cc1ccccc1)CC2 (centres undefined)
  A: 1; B: x; C: -3.2; D: -7; E: x; F: -17

[4] Cc1ccc2[nH]c(C)c(CCNCc3cccnc3)c2c1
  A: -18; B: 0%; C: -7.4; D: x; E: 7%; F: -6

[5] CC12CN3CC(C)(CN(C1)C3c1cccnc1)C2=O (centres undefined)
  A: -4; B: 3%; C: -2.1; D: -1; E: 1%; F: 2

[6] Cc1cc(C)[n+](CCCC[n+]2c(C)cc(C)cc2C)c(C)c1
  A: 0; B: 10%; C: -1.7; D: 1; E: u; F: -1

[7] CN1CCc2cc3c(cc2[C@H]1[C@@H]1OC(=O)c2c1ccc1c2OCO1)OCO3
  A: -8; B: -3%; C: 4.3; D: -4; E: x; F: -3

[8] Cn1c(O)c(C(=NCCc2c[nH]c3ccccc23)c2ccccc2)c(=O)n(C)c1=O
  A: -7; B: 2%; C: -4.2; D: -6; E: -17%; F: -3

[9] c1ccc(C2(NC3=NCCO3)CCCCC2)cc1
  A: -12; B: x; C: -5.5; D: 0; E: 8%; F: 4

[10] COc1ccc(CCNCc2cc(OC)cc(OC)c2)cc1
  A: -18; B: x; C: x; D: 4; E: 22%; F: -14

[11] CCn1c(O)c(C(=O)CC2NCCc3ccccc32)c(=O)n(CC)c1=S (centres undefined)
  A: -12; B: -21%; C: -0.3; D: -3; E: -51%[inhibitor]; F: 0

[12] CN1CCCC2c3ccccc3CCC21 (centres undefined)
  A: 9; B: x; C: 11; D: 4; E: u; F: 0

[13] CC[N+](C)(CC)CCCCOc1ccc2c(c1)C(=O)c1cc(OCCCC[N+](C)(CC)CC)ccc1-2
  A: -6; B: u; C: -4.0; D: x; E: 0%; F: 3

[14] CC(=O)OC1CCC2(/C=N/O)C(=CCC3C4CCC(=O)C4(C)CCC32)C1 (centres undefined)
  A: 8; B: -6%; C: -0.5; D: x; E: -4%; F: 1

[15] COC(=O)C1=C(c2cc3ccccc3s2)C[C@@H]2CC[C@H]1N2C(=O)N1CCC(O)CC1
  A: -10; B: 1%; C: 1.5; D: 0; E: -30%[inhibitor]; F: 5

[16] C[C@@H]1C(=O)O[C@@H]2[C@H](O)C34[C@@H]5OC(=O)C3(O[C@H]3OC(=O)[C@H](O)C34[C@H](C(C)(C)C)[C@H]5O)[C@@]12O (some centres undefined)
  A: -8; B: 11%; C: -1.5; D: -18; E: x; F: -3

[17] CC(NS(=O)(=O)c1ccc(CCC(=O)N2CCN(C)CC2)cc1)c1ccccc1 (centres undefined)
  A: -5; B: 10%; C: -3.4; D: -1; E: 3%; F: 10

[18] O=C1NC(=O)C(Sc2ccccc2[N+](=O)[O-])C(=O)N1
  A: -11; B: 4%; C: -3.4; D: -10; E: u; F: 21

[19] OCC(Cl)CCl (centres undefined)
  A: -6; B: -3%; C: -4.6; D: -8; E: x; F: 4

[20] CCOC(=O)CNC(=O)CNC(=O)C(Cc1ccc(N(CCCl)CCCl)cc1)NC(C)=O (centres undefined)
  A: -11; B: u; C: -1.3; D: 5; E: -13%; F: 1

[21] CCC1CN2CCc3cc(OC)c(OC)cc3C2CC1CC1NCCc2c1[nH]c1ccc(O)cc21 (centres undefined)
  A: -35; B: -14%; C: -3.5; D: -15; E: -29%; F: u

[22] CCC(C)(C)n1nnnc1C(c1cccs1)N1CC=C(c2ccc(F)cc2)CC1 (centres undefined)
  A: -19; B: 4%; C: -2.3; D: 4; E: -9%; F: -11

[23] O=C1CC(N2CCC(n3c(=O)[nH]c4ccccc43)CC2)C(=O)N1Cc1ccccc1 (centres undefined)
  A: 2; B: -5%; C: 0.0; D: -1; E: -3%; F: 4

[24] Cc1cc2c(cc1C)NP(=S)(c1ccccc1)N2
  A: -7; B: -10%; C: -1.7; D: 1; E: 6%; F: -2

[25] Fc1ccc(CCNCc2cccc(Cl)c2)cc1
  A: -27; B: 11%; C: -5.5; D: 10; E: -40%[inhibitor]; F: 18

[26] COC(=O)CC1=C(C(=O)OC)C2(C(=O)N(C)c3ccccc32)C(C#N)=C(N)O1 (centres undefined)
  A: 25; B: 4%; C: 3.8; D: 6; E: -1%; F: -2

[27] C=CCN1C(=O)C2(C(C(=O)OCC)=C(N)Oc3ccccc32)c2c1c1ccccc1oc2=O (centres undefined)
  A: -4; B: -30%; C: -1.8; D: -5; E: -36%[inhibitor]; F: -2

[28] C=C1[C@@H](OC(C)=O)[C@]23C[C@@H]1[C@@H](OC(C)=O)CC2[C@]12C4C[C@H]3[C@H]1N(CC)C[C@]4(C)CC[C@@H]2O (some centres undefined)
  A: -31; B: -3%; C: -8.1; D: -8; E: x; F: 26

[29] COc1ccc(N2C(=O)/C(=C/c3cc(C)n(-c4ccc(C)cn4)c3C)C(=O)NC2=S)c(OC)c1
  A: -8; B: -16%; C: -2.4; D: x; E: -2%; F: -6

[30] O=C(O)c1[nH]c(=O)[nH]c(=O)c1F
  A: -2; B: 7%; C: -0.5; D: -1; E: 20%[15.4 µM]; F: 4

2 entries from above, field by field:
24	Cc1cc2c(cc1C)NP(=S)(c1ccccc1)N2
  D2 PAM = -7
  gsp antagonist = -10%
  D2 ag = -1.7
  CtBP-E1A blk = 1
  gsp agonist = 6%
  Six1-Eya2 blk = -2
28	C=C1[C@@H](OC(C)=O)[C@]23C[C@@H]1[C@@H](OC(C)=O)CC2[C@]12C4C[C@H]3[C@H]1N(CC)C[C@]4(C)CC[C@@H]2O (some centres undefined)
  D2 PAM = -31
  gsp antagonist = -3%
  D2 ag = -8.1
  CtBP-E1A blk = -8
  gsp agonist = x
  Six1-Eya2 blk = 26

11 of these compounds in another layout.
No. | SMILES | D2 PAM | gsp antagonist | D2 ag | CtBP-E1A blk | gsp agonist | Six1-Eya2 blk
17 | CC(NS(=O)(=O)c1ccc(CCC(=O)N2CCN(C)CC2)cc1)c1ccccc1 (centres undefined) | -5 | 10% | -3.4 | -1 | 3% | 10
18 | O=C1NC(=O)C(Sc2ccccc2[N+](=O)[O-])C(=O)N1 | -11 | 4% | -3.4 | -10 | u | 21
19 | OCC(Cl)CCl (centres undefined) | -6 | -3% | -4.6 | -8 | x | 4
20 | CCOC(=O)CNC(=O)CNC(=O)C(Cc1ccc(N(CCCl)CCCl)cc1)NC(C)=O (centres undefined) | -11 | u | -1.3 | 5 | -13% | 1
21 | CCC1CN2CCc3cc(OC)c(OC)cc3C2CC1CC1NCCc2c1[nH]c1ccc(O)cc21 (centres undefined) | -35 | -14% | -3.5 | -15 | -29% | u
22 | CCC(C)(C)n1nnnc1C(c1cccs1)N1CC=C(c2ccc(F)cc2)CC1 (centres undefined) | -19 | 4% | -2.3 | 4 | -9% | -11
23 | O=C1CC(N2CCC(n3c(=O)[nH]c4ccccc43)CC2)C(=O)N1Cc1ccccc1 (centres undefined) | 2 | -5% | 0.0 | -1 | -3% | 4
24 | Cc1cc2c(cc1C)NP(=S)(c1ccccc1)N2 | -7 | -10% | -1.7 | 1 | 6% | -2
25 | Fc1ccc(CCNCc2cccc(Cl)c2)cc1 | -27 | 11% | -5.5 | 10 | -40%[inhibitor] | 18
26 | COC(=O)CC1=C(C(=O)OC)C2(C(=O)N(C)c3ccccc32)C(C#N)=C(N)O1 (centres undefined) | 25 | 4% | 3.8 | 6 | -1% | -2
27 | C=CCN1C(=O)C2(C(C(=O)OCC)=C(N)Oc3ccccc32)c2c1c1ccccc1oc2=O (centres undefined) | -4 | -30% | -1.8 | -5 | -36%[inhibitor] | -2

(more compounds)
Short keys – A = D2 PAM; B = gsp antagonist; C = D2 ag; D = CtBP-E1A blk; E = gsp agonist; F = Six1-Eya2 blk
[31] CCOCCc1c(O)[nH]c(=S)[nH]c1=O
  A: -6; B: 2%; C: -2.3; D: 0; E: 23%; F: 4

[32] CCC(=NCc1cccnc1)c1c(O)n(-c2ccc(C)cc2)c(=O)[nH]c1=O
  A: -19; B: -2%; C: -3.9; D: x; E: -7%; F: 4

[33] CCC(c1nnnn1-c1ccc2c(c1)OCCO2)N1CCC2(CC1)C(=O)NCN2c1ccccc1 (centres undefined)
  A: -18; B: x; C: -11; D: -3; E: x; F: -7

[34] O=P(O)(CCc1ccccn1)CN1CCCCC1
  A: -6; B: -1%; C: -0.3; D: 7; E: -25%; F: 3

[35] C=CCN1C(=O)NC(=O)/C(=C/c2cccn2C)C1=O
  A: -14; B: -1%; C: -1.0; D: 7; E: -8%; F: 2

[36] COc1ccc(C(=O)C2CCCN(Cc3ccccn3)C2)c(OC)c1 (centres undefined)
  A: -16; B: 67%[activator]; C: -6.2; D: x; E: 11%; F: -3
